Source: PubChem BioAssay (ICCB-Longwood Screening Facility, Harvard Medical School)
MgrA-DNA mod: S. aureus MgrA activity modulators, primary screen, biochemical, S. aureus Newman, fluorescence polarization; inhibition, %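 (about 10 µg/mL by stock and volumes)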; MgrA-DNA binding; 84,000 tested, 0.13% active; AID 602314, 2012;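 active = above 50% in either of two replicates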;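 also: 0% = protein plus DNA without compound and 100% = DNA alone without protein; higher means less MgrA bound to DNA so lower polarization; one replicate is shown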
Sa helicase inh: inhibitors of S. aureus replicative helicase, primary screen, biochemical, fluorescence unwinding readout | replicative DNA helicase (DnaC/DnaB), Staphylococcus aureus | purified S. aureus helicase, fluorescence unwinding assay; about half of the hits fall short of the stated cut | inhibition, %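 (tested at about 80 µM)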 | 120,000 tested, 0.05% active;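 active = both duplicates at 50% or more, or one of them with a favoured structure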;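 also: 0% = mean of negative control wells and 100% = mean of positive control wells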
Starred values were filed as active, the others as inactive; nt = no result given.

Value order – MgrA-DNA mod, Sa helicase inh
COC=Nc1c(C(=O)OC)n(Cc2ccccc2)c2ccccc12
 : nt, 12.0
CC(=O)Oc1ccc(-c2ccc(C(=O)NCCc3ccccn3)cc2)cc1
 : -0.5, -23.0
CCOc1ccccc1COC(=O)c1cccc(-n2cnnn2)c1
 : nt, 25.0
CCCn1c(-c2cccs2)nc2ccccc21
 : nt, 8.0
Cc1cc2oc(=O)cc(-c3cc4ccccc4o3)c2cc1O
 : nt, 9.0
O=C(O)COc1nc(-c2ccccc2)sc1C(=O)O
 : nt, 0.0
Cc1ccc2[nH]c(=O)c(CN(CCCO)C(=O)NC3CCCCC3)cc2c1
 : -0.8, 5.0
ClCCOc1ccc(Br)cc1OCCCl
 : 0.7, 23.0
COc1ccccc1C(=O)COC(=O)c1ccc(CN2CCCC2=O)cc1
 : nt, 1.0
CCN1C(=O)CSc2ccc(C(=O)NCCc3ccc(OC)c(OC)c3)cc21
 : 0.9, 7.0
NC(=O)/C(=C\c1ccccc1O)C(N)=S
 : nt, -8.0
O=C1C2CC=CCC2C(=O)N1CC(=O)N1N=C2/C(=C/c3cccs3)CCCC2C1c1cccs1 (stereo not drawn)
 : nt, 6.0
CCSCCOC(=O)C1=C(C)N(C)C(=O)NC1c1ccc(OCc2ccccc2)cc1 (stereo not drawn)
 : 2.5, nt
CCCc1oc2cc(O)ccc2c(=O)c1Oc1ccccc1
 : -1.2, -15.0
COc1ccc(NC(=O)CSC2=NCCS2)cc1
 : nt, 6.0

Some of these compounds in order of heavy-atom count, lowest first:
Value order – MgrA-DNA mod, Sa helicase inh
NC(=O)/C(=C\c1ccccc1O)C(N)=S
 : nt, -8.0
CCCn1c(-c2cccs2)nc2ccccc21
 : nt, 8.0
COc1ccc(NC(=O)CSC2=NCCS2)cc1
 : nt, 6.0
O=C(O)COc1nc(-c2ccccc2)sc1C(=O)O
 : nt, 0.0
CCCc1oc2cc(O)ccc2c(=O)c1Oc1ccccc1
 : -1.2, -15.0
COc1ccccc1C(=O)COC(=O)c1ccc(CN2CCCC2=O)cc1
 : nt, 1.0

Continued.
Value order – MgrA-DNA mod, Sa helicase inh
CC(=O)N1N=C(c2c(-c3ccccc3)c3cc(Br)ccc3[nH]c2=O)CC1c1ccccc1F (stereo not drawn)
 : 1.0, nt
CC(C)c1ccc(C2(C#N)C(=O)Nc3ccccc32)cc1 (stereo not drawn)
 : -2.1, 13.0
COCc1nc2ccccc2n1CC(C)C
 : 1.1, -5.0
CCc1ccc(NC(=O)c2cc(C)no2)cc1
 : 0.1, 14.0
CCc1ccc(CN(C)C(=O)C2=CC=CN3CCS(=O)(=O)N=C23)cc1
 : nt, 9.0
COc1ccccc1-n1nnnc1SC(C)c1nnc(-c2ccc(F)cc2)o1 (stereo not drawn)
 : nt, 15.0
Cc1cc2cc(CNC(=O)CC3CCCCC3)ccc2n1C
 : nt, 11.0
O=c1ccc(S(=O)(=O)N2CCCC2)cn1Cc1coc(-c2ccccc2)n1
 : nt, 4.0
CC1Sc2ccc(C(=O)Nc3ccc(N4CCOCC4)cc3)cc2NC1=O (stereo not drawn)
 : nt, -6.0
O=C1c2ccccc2C(=O)N1C1c2ccccc2Oc2ccccc21
 : -1.0, 12.0
CCOC(=O)C1(C(=O)OCC)CCC1
 : 5.2, 0.0
CC(=O)NCCc1nc2ccccc2n1C
 : nt, 10.0
O=C(Nc1cc(C(F)(F)F)cc(C(F)(F)F)c1)C1CC1
 : 1.0, 4.0
CCN1CCN(C(=O)CCCN2C(=O)c3ccccc3Sc3ncccc32)CC1
 : nt, -19.0
CCN(CC)C(=O)Oc1cc2c(-c3cc4cccc(OC)c4o3)cc(=O)oc2cc1C
 : nt, 4.0
CCCOC(=O)C(C)Sc1n[nH]c(=O)[nH]c1=O (stereo not drawn)
 : nt, 27.0
CCOC(=O)C1CCCN(CC(O)COc2ccc(OC)cc2C(C)(C)C)C1 (stereo not drawn)
 : nt, -2.0
COc1ccc(CCNC(=O)c2ccc(S(=O)(=O)N3CCCC3)cc2)cc1
 : nt, -24.0
O=C1c2ccccc2C(=O)N1CCC(c1ccccc1)c1ccco1 (stereo not drawn)
 : 0.0, 8.0
CC1CCCCN1C(=O)c1cc(-c2ccc(F)cc2)no1 (stereo not drawn)
 : -1.4, 6.0
COC(=O)Cc1ccc2c(c1)NC(=O)CO2
 : -1.8, nt
CC1CCCC(C)N1C(=O)CSc1nc(N)c(-c2ccccc2)c(=O)[nH]1 (stereo not drawn)
 : -3.5, 12.0
COC(=O)CSc1ncccc1C(=O)OC
 : 0.2, nt
CNC(=O)Nc1cc(C)nn1C
 : -2.0, nt
CCn1c(=O)cc(OCC(=O)NCCCN2CCN(c3cccc(Cl)c3)CC2)c2ccccc21
 : nt, 6.0
CS(=O)(=O)/C(C#N)=C/c1cccn1-c1ccc(OC(F)(F)F)cc1
 : -0.1, nt
CCOC(=O)c1c[nH]n2c(=O)cc(C)nc12
 : -1.8, nt
CC(C)OC(=O)Cn1c2ccccc2c2nc3ccccc3nc21
 : 4.2, 15.0
COc1ccc(OC)c(-n2c(SCC(=O)NCC3CCCO3)nnc2-c2c[nH]c3ccccc23)c1 (stereo not drawn)
 : nt, 0.0
CC1=NNC(=O)/C1=C/C1CC=CCC1 (stereo not drawn)
 : nt, -12.0
CCOC(=O)c1[nH]c(C)c(C(=O)Nc2cc(C)cc(C)c2)c1C
 : nt, -25.0
O=C(O)C1CCCN(S(=O)(=O)c2cccs2)C1 (stereo not drawn)
 : nt, -1.0
O=C(NNc1ccnc2cc(Cl)ccc12)C1CCCCC1
 : nt, -1.0
Cc1ccc(S(=O)(=O)N(CCO)c2cc3c(s2)CCCC3)cc1
 : 1.5, -3.0
O=C(NC1=NCCS1)c1cccs1
 : -3.2, nt
CN(C)c1nc(-c2ccccc2)nnc1-c1ccccc1
 : -1.1, nt
O=C(CN1CCC(NC(=O)c2ccccc2)CC1)NCc1ccccc1F
 : -2.6, -2.0
CC1=CC(=C2C(=O)c3ccccc3C2=O)C=C(C)N1CCO
 : nt, -84.0
O=C(CSc1nnc(COc2ccccc2)o1)N1CCCCC1
 : nt, 6.0
CN(C(=O)c1cccc(S(=O)(=O)N(C)C)c1)C1CCCCC1
 : nt, -23.0
O=[N+]([O-])c1cccc(-c2nc(-c3ccccc3)nc(-c3ccccc3)n2)c1
 : 13.1, nt
O=C1c2cccnc2C(=O)N1CCc1ccc(S(=O)(=O)N2CCCCC2)cc1
 : nt, 16.0
O=C(Nc1cccnc1)N(c1ccccc1)c1ccccc1
 : 6.3, 13.0
Cc1ccc(-c2nc3ncccc3o2)cc1NC(=S)NC(=O)c1oc2ccccc2c1C
 : 1.4, 5.0
COc1cccc(NC(=S)N2CCOCC2)c1
 : -2.2, nt
O=C1c2ccccc2C(=O)N1Cc1cc(Cl)c2cccnc2c1O
 : 3.0, 12.0
Cn1c(CS(=O)(=O)c2ccccc2)c(C#N)c2ccccc21
 : 5.5, -10.0
CCCCCCCCCCCCCCC[C@@H](O)[C@H](CO)NC(=O)CCCCCCC
 : 0.9, nt
COc1ccc(N(C(=O)C(C)C)S(=O)(=O)c2cccc3cccnc23)cc1
 : -0.2, 17.0
O=C(O)CCC(=O)N1CCN(c2ccccn2)CC1
 : -2.6, nt
Cn1c(Cc2ccccc2)nnc1SC1CCOC1=O (stereo not drawn)
 : nt, -9.0
Cc1ccc(C(=O)N2CCc3ccccc32)cc1
 : 1.0, 2.0
Cc1ccc(OCc2nnc(SCC(=O)NC3CCCCC3)n2C(C)C)c(C)c1
 : -2.8, -5.0
Cc1ccc(C)n1C(Cc1ccccc1)C(=O)O (stereo not drawn)
 : 10.6, 7.0
COc1ccc(C2OC(=O)Cc3cc(OC)c(OC)cc32)cc1OC (stereo not drawn)
 : -1.9, 25.0
CCOc1ccc(NC(=O)CCCN2C(=O)/C(=C/c3ccc(Cl)cc3)SC2=S)cc1
 : nt, -15.0
O=C(NC1CCOC1=O)c1ccc(COc2ccc3ccccc3c2)o1 (stereo not drawn)
 : 0.6, 8.0
COc1ccc(-c2nc(Cn3c(SCc4cc(C)ccc4C)nc4ccncc43)c(C)o2)cc1
 : -0.5, 12.0
Cc1ccccc1NC(=O)CSc1nnc(C)c2ccccc12
 : -2.6, nt
Oc1c(Cl)cc(Cl)cc1C=NCc1ccc(Cl)cc1
 : -2.7, nt

(cont.)
Value order – MgrA-DNA mod, Sa helicase inh
N#CCn1ccn(-c2ccc3c(c2)OCO3)c(=O)c1=O
 : nt, 3.0
COc1cccc(N2CCN(CC(=O)C34CC5CC(CC(C5)C3)C4)CC2)c1
 : nt, -3.0
Nc1ccc(S(=O)(=O)Nc2cc(Cl)cc(Cl)c2)cc1
 : -0.5, nt
CC(=O)N1c2ccccc2NC2=C(C(=O)CCC2)C1c1ccccc1 (stereo not drawn)
 : -0.3, 23.0
Cc1[nH]c(C)c(Cl)c(=O)c1Cl
 : 3.1, nt
C(=NCc1ccccc1)c1cccs1
 : -2.7, nt
CCN(CC)S(=O)(=O)c1ccc2oc(SCC3CN=C(c4ccc(OC)cc4)S3)nc2c1 (stereo not drawn)
 : nt, 11.0
COc1cccc(NC(=O)Cc2ccc3c(c2)OCCO3)c1
 : nt, -15.0
O=C(CCC(=O)Nc1ccccc1)NN=C1CCCCC1
 : 2.4, -5.0
COc1ccc(C2CC(=O)C=C(NCc3ccccc3)C2)cc1 (stereo not drawn)
 : 0.2, -12.0
CC(C)/C=C1\CC/C(=C\c2ccc(Cl)cc2)C1=O
 : 0.0, 3.0
CCCn1c(C(O)c2ccc(C(C)C)cc2)nc2ccccc21 (stereo not drawn)
 : 2.0, 3.0
Cc1cc(=S)oc2ccccc12
 : nt, 7.0
NS(=O)(=O)c1ccc(CNC(=O)c2cccc(S(=O)(=O)NCC(F)(F)F)c2)cc1
 : nt, -3.0
COc1cc2c(cc1OC)C(COc1cc(C)cc(C)c1)N(C(C)=O)CC2 (stereo not drawn)
 : nt, 8.0
N#CCc1nc(-c2ccccn2)n[nH]1
 : 2.7, nt
CSc1nc(NC(=O)NS(=O)(=O)Cc2ccc(Cl)cc2Cl)nc(N2CCCC2)n1
 : 0.9, nt
COc1ccc(CCN2C(=O)/C(=C3/C(=O)N(C)c4ccccc43)SC2=S)cc1OC
 : -1.2, nt
O=C(O)c1cc2c(s1)-c1ccccc1CC2
 : nt, -21.0
COc1ccc(C=NCCN2Cc3ccccc3C2=O)cc1OC
 : -1.4, -5.0
O=C(CCc1nnc2n(CCc3ccccc3)c(=O)c3ccccc3n12)NCCN1CCOCC1
 : nt, -15.0
CC(=O)Nc1cccc(Oc2ccc3c(c2)C(=O)N(c2cccc(Cl)c2)C3=O)c1
 : -0.4, 10.0
CCSc1nnc2c(=O)[nH]c(=O)[nH]c2n1
 : -2.9, 12.0
NC(=O)Cc1nc(-c2ccc(Br)cc2)cs1
 : 4.3, 12.0
CC1(C)N=C(N)N=C(N)N1c1ccc(Cl)cc1
 : -3.9, nt
Cc1ccc(CCC(=O)O)o1
 : -3.4, 12.0
CC(C)c1ccccc1NC(=O)COc1ccc(Br)cc1
 : -1.1, -1.0
Cc1ccc(-c2nsc(SCC(=O)c3ccc(Cl)cc3)n2)cc1
 : -0.4, 5.0
CCCn1c(=S)[nH]c2sc(CC)cc2c1=O
 : nt, -11.0
CCCCNC(=O)N1CCN(c2ccnc3cc(Cl)ccc23)CC1
 : nt, -31.0
Clc1ccc(Sc2ccc3nnc(-c4ccccc4)n3n2)cc1
 : 4.2, nt
COc1ccccc1OC/C(O)=C(\C#N)c1nc2ccccc2[nH]1
 : nt, -19.0
Cn1cc(S(=O)(=O)N2CCc3ccccc32)cc1C(=O)N1CCCCCC1
 : nt, -22.0
Cc1onc(-c2ccccc2)c1-c1ccnn1C(=O)c1ccc(Cl)cc1
 : -0.8, nt
O=S(=O)(NC1CCCc2ccccc21)c1ccc(-n2cccn2)cc1 (stereo not drawn)
 : nt, 14.0
Cc1c(N2C(=O)SC(CC(=O)O)C2=O)c(=O)n(-c2ccccc2)n1C (stereo not drawn)
 : 0.1, 4.0
O=C(CC1c2ccccc2Oc2ccccc21)Nc1ccccn1
 : 0.9, 11.0
O=C(c1ccc(C(F)(F)F)cc1)N1CCN(C(=O)c2ccco2)CC1
 : 0.2, nt
O=C(CSc1nc2c(c(=O)n1-c1ccccc1)SCC2)N1CCCCC1
 : nt, 5.0
O=C(CCN1C(=O)C2C3C=CC(C3)C2C1=O)NC(c1ccccc1)c1ccccc1 (stereo not drawn)
 : -0.7, -13.0
Cc1ccc2nc(NC(=O)CCNS(=O)(=O)c3cccs3)sc2c1
 : -1.1, 5.0
Brc1ccc(NCc2ccco2)cc1
 : -1.1, 7.0
O=C(NCCCN1CCCCC1)c1[nH]nc2c1COc1ccccc1-2
 : nt, 2.0
CN(C)CCN(C(=O)c1ccc(Cl)s1)c1nc2cc3c(cc2s1)OCCO3
 : nt, -25.0
COc1ccc(OC)c(NC(=O)CSc2nccn2-c2ccc(Cl)cc2)c1
 : nt, 19.0
O=C(O)c1cc2c3c(c1)C1C=CCC1C(c1ccc(Cl)cc1)N3CC1CC=CC21 (stereo not drawn)
 : 24.5, nt
N#Cc1cccc(NC(=O)COC(=O)/C=C/c2ccccc2)c1
 : 0.3, 5.0
Oc1cccc(-c2csc3nc4ccccc4n23)c1
 : nt, -5.0
CCc1ccc(NC(=O)C(C)OC(=O)c2ccccc2NC(=O)c2ccco2)cc1 (stereo not drawn)
 : nt, -15.0
O=C(c1cc(C2CC2)nn1-c1ccccc1)N(CC1CCCO1)c1nc2ccccc2s1 (stereo not drawn)
 : nt, 21.0
O=C(Oc1ccc(C2Oc3ccccc3C3CC(c4ccccc4)=NN32)cc1)c1ccc(Br)cc1 (stereo not drawn)
 : -0.5, nt

An excerpt (hit frequency here may not be typical).
